# High-throughput results as filed in PubChem.
# GALR2 agonist = GALR2 (human) receptor agonism; O43603; GALR2-expressing cells, agonist activation read-out; activation, %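 (tested at 5 µM)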; 140,000 compounds, 0.48% hits; AID 803;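 active means above mean plus 3 SD of all compounds, about 5% in these data, not always enough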;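 further: 0% = vehicle buffer wells and 100% = reference agonist at full effect; tested in CHO reporter cells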
# Target sequence (O43603 whole entry, looked up): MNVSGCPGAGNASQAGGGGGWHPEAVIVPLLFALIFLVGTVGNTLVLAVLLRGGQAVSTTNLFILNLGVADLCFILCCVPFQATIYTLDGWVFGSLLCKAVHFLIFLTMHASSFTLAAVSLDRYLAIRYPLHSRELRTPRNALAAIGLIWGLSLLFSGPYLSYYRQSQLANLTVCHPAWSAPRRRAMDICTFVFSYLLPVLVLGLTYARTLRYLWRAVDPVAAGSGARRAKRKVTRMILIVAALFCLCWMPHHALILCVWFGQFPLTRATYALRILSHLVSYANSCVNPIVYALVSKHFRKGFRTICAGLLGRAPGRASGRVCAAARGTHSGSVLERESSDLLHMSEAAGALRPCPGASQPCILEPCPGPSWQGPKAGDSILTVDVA
# INS promoter inh = TRM-6 insulin promoter activity inhibition; TRM-6 cells (human fetal islet line), insulin promoter-eGFP reporter, imaging; reporter expression induced with tamoxifen; AID 1273; inhibition, % at 2 µM; 130,000 compounds, 0.9% hits;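 active means inhibition above the mean plus 3 SD, with well images judged a real hit on visual review, cut at about 60% in these data, passing the limit was not always enough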
# HSV augment = HSV replication enhancement; HSV replication augmentation in cells, fold increase; 220,000 compounds, 0.005% hits; maximum fold increase; AID 1956;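 active means peak rise of 1.5-fold or more in the series; tested in PC3 cells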;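 further: first round at 10 µM; read as green reporter fluorescence; hits show the peak of a series up to 25 µM; 1 = signal of infected wells without compound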
# RGS16-Gao HTS = RGS16-Galphao interaction regulator (human); AID 1441; 220,000 compounds, 0.38% hits; bead-based flow cytometry RGS16-Galphao binding, fluorescence; actives lie on both sides; binding response (% of control), % at 10 µM; O15492+P09471;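 active means below 25% or above 175%, edge rows of some plates excepted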;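 further: Galphao activated by GDP with aluminum fluoride before binding; 100% = wells without compound and 0% = beads without RGS; some results beyond the cut were filed as inactive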
# Target sequence (O15492 whole entry, looked up): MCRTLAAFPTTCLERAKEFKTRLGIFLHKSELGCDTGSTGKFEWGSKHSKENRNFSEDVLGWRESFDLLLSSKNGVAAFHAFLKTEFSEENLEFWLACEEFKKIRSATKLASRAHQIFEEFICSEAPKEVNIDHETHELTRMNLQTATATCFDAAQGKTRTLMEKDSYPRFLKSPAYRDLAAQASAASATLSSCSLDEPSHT
# Target sequence (P09471 whole entry, looked up): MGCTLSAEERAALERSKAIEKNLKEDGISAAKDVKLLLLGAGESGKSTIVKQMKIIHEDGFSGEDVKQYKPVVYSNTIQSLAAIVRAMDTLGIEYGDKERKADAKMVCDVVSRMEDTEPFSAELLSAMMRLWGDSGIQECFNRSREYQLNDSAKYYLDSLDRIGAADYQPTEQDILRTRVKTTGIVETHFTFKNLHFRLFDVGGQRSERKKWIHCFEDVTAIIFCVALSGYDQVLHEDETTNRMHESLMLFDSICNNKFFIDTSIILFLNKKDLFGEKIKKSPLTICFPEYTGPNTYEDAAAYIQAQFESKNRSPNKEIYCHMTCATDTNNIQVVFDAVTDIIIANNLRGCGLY
# PKD1 kinase inh = PKD1 (human) kinase inhibition. Q15139. PKD1 kinase fluorescence polarization assay. inhibition, %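 (about 10 µM by stock and volumes)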. 200,000 compounds, 0.056% hits. AID 797;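 active means inhibition of 50% or more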;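 further: controls were vehicle for no effect and a reference inhibitor for full effect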
# INS promoter inh cell count = also measured in INS promoter inh; calls as there; normalized cell count, %; measured here: cell count, toxicity; reference of the scale not given here;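 cells exposed to compound for 48 h; stained nuclei by imaging scaled within each plate; lower means fewer cells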
# HSV augment primary fold = second read-out of HSV augment, no call of its own (marks repeat the call); fold increase; compound at 10 µM; measured here: primary screen fold increase 10 uM; tested in PC3 cells;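 GFP signal in the first replicate; 1 = infected wells without compound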
# Numbers without * were called inactive; i = inactive; . = not tested or not shown. An unsorted share of the library; 1.3% or so of the library scored in one or more.
SMILES,GALR2 agonist,INS promoter inh,INS promoter inh cell count,HSV augment,HSV augment primary fold,RGS16-Gao HTS,PKD1 kinase inh
COc1cc(CNc2ccc(O)cc2)cc(Br)c1OCc1ccccc1F,-0.7,.,.,i,0.91,103.3,-14.5
Cc1ccc(C2N(c3ccccc3)C(=O)N3CCCN23)cc1 (stereo not drawn),.,-41.2,56.0,i,0.91,100.2,0.6
CCCN1C(=O)C(NC(C)=O)c2ccccc21 (stereo not drawn),-1.7,-33.3,109.9,i,0.99,97.7,0.4
NS(=O)(=O)c1ccc(CCNC(=O)C2CCC(CNS(=O)(=O)c3ccc(Br)s3)CC2)cc1 (stereo not drawn),.,11.1,131.3,i,1.06,95.8,1.5
COc1cccc(NC(=O)c2ccccc2-c2ccccc2)c1,.,.,.,i,0.9,107.3,4.8
CCN(C(=O)COC(=O)c1cc(NS(=O)(=O)c2ccc(Cl)c([N+](=O)[O-])c2)ccc1O)C1CCCCC1,-0.6,11.8,134.5,i,0.91,102.2,8.7
O=C(c1cccnc1)n1nc(NCc2ccccc2)nc1NCc1ccccc1,.,.,.,i,0.91,106.1,4.0
CC(N=C1NS(=O)(=O)c2ccccc21)C(=O)NCc1ccc2c(c1)OCO2 (stereo not drawn),-2.2,-21.7,79.7,i,0.89,88.0,-3.0
C=CCOc1c(Cl)cc(/C=N/O)cc1OC,-0.1,22.2,159.5,i,0.96,99.9,1.1
CC1=C(C(=O)Nc2ccccc2F)C(c2ccsc2)C2=C(CC(C)(C)CC2=O)N1 (stereo not drawn),0.3,.,.,i,0.59,107.6,6.1
O=C(NCc1ccc(Cl)cc1)c1cc(-c2cccs2)on1,-4.4,.,.,i,1.01,101.5,-6.3
Cc1cc(C)nc(N2CCCC(C(=O)Nc3cc(F)ccc3C)C2)n1 (stereo not drawn),-0.7,50.0,118.9,.,.,102.0,-14.6
CC(C)OP(=O)(c1ccc(N(C)C)cc1)C(O)c1cccnc1 (stereo not drawn),.,.,.,i,0.93,98.4,.
CCCOc1ccc2c3c(c(=O)oc2c1)CCCC3,-1.8,28.0,107.1,i,1.04,103.9,-3.3
Cc1ccc(-c2c(C#N)c(N)nc3c2CCCC3)s1,1.1,11.4,162.7,i,1.04,85.2,0.8
NC(=O)CSc1nnc(-c2cnccn2)n1Cc1ccco1,.,.,.,i,0.87,100.5,.
Cc1c(S(=O)(=O)N2CCN(c3cccc(C(F)(F)F)c3)CC2)c(=O)n(C)c(=O)n1C,-4.2,.,.,i,0.89,107.0,-1.9
COC(=O)c1sccc1NC(=O)Nc1cccc(Cl)c1Cl,-1.7,-13.8,80.2,i,0.95,100.5,1.3
Cc1nc2ccccc2cc1OCc1ccccc1,-0.5,-16.7,106.2,.,.,92.8,-18.8
O=C(c1cccs1)N1CCN=C1SCc1ccc(F)cc1,.,.,.,i,0.8,95.8,.
CCC(Cc1ccccc1)NC(=O)C1CCC(CNc2c(N3CCCC3)c(=O)c2=O)CC1 (stereo not drawn),-2.7,.,.,i,0.95,97.3,-8.7
CCCNC(=O)COC(=O)CCC(=O)c1cccs1,1.4,28.6,92.4,i,1.04,42.0,-7.0
C/C(=C1/SC(N2CCOCC2)=NC1=O)c1ccc(Br)cc1,-3.0,.,.,i,1.1,79.5,5.6
O=C(NN1C(=O)CSC1=S)C(=O)NN1C(=O)CSC1=S,.,55.6,78.4,i,1.04,92.8,2.5
Cc1ccc2nc(SCC(=O)N3c4ccccc4CC3C)c(C)cc2c1 (stereo not drawn),-2.7,45.5,98.0,i,1,100.0,-7.2
COc1ccc(OC)c(NC(=O)N[C@H](Cc2ccccc2)C(=O)NN)c1,.,.,.,i,1.04,92.2,.
CC(C)N(Cc1nc(-c2ccccc2)no1)C(=O)C(C)(C)C,-1.4,16.7,105.2,i,1.02,-46.3,1.7
COc1ccc2[nH]c(=O)c(CNc3ccc(C)c(C)c3)cc2c1,-1.8,-41.5,82.0,i,0.93,96.7,-9.4
O=C(CCN1CCCCC1)NCNC(=O)CCN1CCCCC1,-0.7,50.0,74.0,i,0.85,95.4,10.4
CC(=O)Nc1ccccc1OCc1nnc(-c2cccs2)o1,-1.6,-13.9,39.3,i,1.02,98.5,-5.4
CCN(CC)CC(C)OC(=O)c1ccccc1Cl (stereo not drawn),.,.,.,i,1.09,101.9,-5.1
O=C(c1cc(-c2cccs2)on1)N1CCCc2ccccc21,-1.5,.,.,i,0.77,92.2,-9.4
O=C(NC(=S)Nc1nc(-c2ccccc2)cs1)c1cccnc1,.,-30.0,133.5,i,0.98,95.3,6.0
O=C(CSCc1ccco1)c1ccc(Cl)s1,-1.9,.,.,i,1.1,117.4,-9.4
COc1ccc(Cc2nnc(NS(C)(=O)=O)s2)cc1,-1.8,-34.4,76.8,i,0.98,95.1,-2.3
O=C(COC(=O)C1CC1)c1c[nH]c2ccccc12,-0.2,27.6,61.3,i,0.97,97.0,-1.5
Cc1cc(C)n2c(SCc3c(C)noc3C)nnc2n1,-0.8,80.0*,53.9*,i,1.01,109.0,-0.6
Cc1cc(C)c(NC(=O)COC(=O)Cc2ccsc2)c(C)c1,.,16.7,124.0,i,1.01,102.7,2.2
O=C(NCc1cccs1)N[C@@H](Cc1ccccc1)C(=O)O,-3.9,.,.,i,1.05,100.2,1.6
COc1ccc(C)cc1NC(=O)C(Sc1nnc2ccccn12)c1ccccc1 (stereo not drawn),-0.6,-21.4,126.0,i,1.13,105.3,-5.5
O=C(CSc1nncs1)NCc1ccc(F)cc1,.,.,.,i,0.95,100.7,-4.5
COCCN(C(=S)Nc1ccc(OC)cc1)C1CCN(C(C)C)CC1,-1.1,-61.3,87.4,i,0.94,101.7,4.3
O=C(NC(NCc1ccccc1)C(Cl)(Cl)Cl)c1cccnc1 (stereo not drawn),-2.0,-4.0,135.6,i,1.06,98.1,-1.6
CC(=O)NC(=S)Nc1ccc(-c2nc3ccc(C)cc3s2)cc1,-1.3,.,.,i,0.88,96.1,0.6
O=C(O)CCn1c(=S)oc2ccccc21,-1.2,0.0,100.8,i,1.21,105.9,-4.5
Cc1cc(C)c2c(=O)n(CC(=O)N3CCC(Cc4ccccc4)CC3)sc2n1,-0.5,.,.,.,.,34.0,-12.8
Cc1cccc(N2CN=C3SCC(=O)N3C2)c1,.,.,.,i,1.04,104.4,.
Cc1ccc(/C=N/NC(=O)c2nc3nc(C)cc(C)n3n2)cc1,0.0,19.4,128.6,i,0.92,101.7,-10.5
COc1cccc(CN2CCN(c3cccc(C(F)(F)F)c3)CC2)c1OC,-2.4,-52.0,84.3,i,1.08,117.6,-10.8
COc1ccc(N(C)S(=O)(=O)c2cccc(C(=O)Nc3ccc4c(c3)OCCO4)c2)cc1,.,-7.1,123.7,i,0.81,115.9,4.3
O=C(CCSCc1ccc(Cl)cc1)NCCc1ccccc1,-0.1,-25.8,79.1,i,1.12,93.2,7.2
Cc1ccc(S(=O)(=O)NC(Cc2c[nH]c3ccccc23)C(=O)O)cc1 (stereo not drawn),-1.8,14.8,59.2,i,1.08,.,1.8
CC(c1nc2ccccc2o1)N1C(=O)c2ccccc2C1=O (stereo not drawn),-1.4,61.9,120.7,i,0.93,107.1,-3.4
CCOC(=O)c1cccc(NS(=O)(=O)c2c(C)[nH]c(=O)[nH]c2=O)c1,-0.7,3.2,71.0,i,0.85,335.3,-17.2
CS(=O)(=O)Nc1nnc(SCC(=O)Nc2cccc([N+](=O)[O-])c2)s1,-1.1,.,.,i,0.86,129.8,-2.8
CCOC(=O)c1c(C)[nH]c(C(=O)OCC(=O)Nc2ccc(OC)c(Cl)c2)c1C,-1.9,-9.1,103.0,i,0.96,104.3,-4.4
COc1ccc(N2CC(C(=O)Nc3nc4ccccc4s3)CC2=O)cc1 (stereo not drawn),.,.,.,i,0.96,100.7,.
COc1ccc2cc(C(=O)C3CCCN(C(=O)CSc4nnc(C)o4)C3)ccc2c1 (stereo not drawn),.,.,.,i,0.91,100.6,-3.6
COC(=O)c1cc(Cl)nc2ccccc12,.,.,.,i,1.09,55.8,-7.1
Cc1ccc(NC(=O)CSCc2c(C)noc2C)cc1C,-1.6,.,.,i,0.93,-35.7,2.6

# Reprinted from the part before: three compounds; new compounds follow.
SMILES,GALR2 agonist,INS promoter inh,INS promoter inh cell count,HSV augment,HSV augment primary fold,RGS16-Gao HTS,PKD1 kinase inh
COc1ccc2cc(C(=O)C3CCCN(C(=O)CSc4nnc(C)o4)C3)ccc2c1 (stereo not drawn),.,.,.,i,0.91,100.6,-3.6
COC(=O)c1cc(Cl)nc2ccccc12,.,.,.,i,1.09,55.8,-7.1
Cc1ccc(NC(=O)CSCc2c(C)noc2C)cc1C,-1.6,.,.,i,0.93,-35.7,2.6
O=C(Nc1cc(C(F)(F)F)ccc1N1CCOCC1)C1Cc2ccccc2CN1C(=O)c1ccco1 (stereo not drawn),-1.3,-18.2,74.0,i,0.94,85.3,0.7
OCCC1CN(Cc2cnc(-c3ccccc3)s2)CCN1C1CCCC1 (stereo not drawn),.,.,.,i,0.66,104.8,1.4
CCOC(=O)CC(=O)CSc1nc2nc(C)cc(C)n2n1,-0.2,.,.,i,0.84,100.6,-1.4
O=C(Nc1ccc(NC(=O)c2ccco2)cc1)c1ccc2c(c1)OCCO2,.,.,.,i,0.91,100.4,5.0
O=[N+]([O-])c1ccc(Cl)c(/C=N/N2CCN(Cc3ccccc3Cl)CC2)c1,-1.0,.,.,i,0.98,100.7,0.0
O=C1c2ccccc2C(=O)N1CCC(=O)N1CCCc2ccccc21,0.2,10.0,135.8,i,0.93,100.0,7.6
Cc1cccc(NC(=S)N/N=C/c2cccc([N+](=O)[O-])c2)c1,-4.4,41.7,104.7,i,0.83,94.4,5.5
Cc1noc(C)c1COC(=O)COc1cccc2c1OC(C)(C)C2,-2.1,29.0,117.2,i,0.9,113.7,-2.0
COc1cc(Cl)c(C)cc1NC(=O)c1ccc(NS(=O)(=O)c2ccc(F)c(F)c2)cc1,.,.,.,i,0.9,105.6,3.6
O=C(Nc1nnc(SCc2ccc(Cl)cc2Cl)s1)C1COc2ccccc2O1 (stereo not drawn),-0.8,22.0,104.2,.,.,94.6,2.2
N#CC(C#N)=Cc1ccccc1OCc1ccccc1,.,.,.,i,0.9,102.9,.
COc1cccc(C(=O)NC(=O)Nc2cc(C)on2)c1,.,.,.,i,0.98,103.8,-9.4
CC1CCCCC1NC(=O)COC(=O)c1ccc(S(=O)(=O)NCc2ccco2)cc1 (stereo not drawn),-2.0,.,.,i,0.81,98.1,1.3
O=C(C(=O)N1CCN(c2ccccc2F)CC1)c1c[nH]c2ccccc12,.,-44.4,81.3,i,0.87,100.2,-8.5
CCCCC[n+]1ccn(-c2nc3ccccc3nc2[N-]S(=O)(=O)c2ccccc2)c1,.,.,.,i,0.98,99.4,.
CCOc1ccccc1/C=C(/NC(=O)c1ccccc1)C(=O)N(CC)CC,-1.4,-20.6,99.4,i,1.02,52.1,1.2
Cc1oc2ccc(OC(=O)c3cccs3)cc2c1C(=O)OC(C)C,-1.6,-7.1,103.7,i,0.93,96.8,-3.1
C/C(=N\NC(=S)NCc1ccccc1)c1cccc(Br)c1,.,.,.,i,1.12,99.9,-3.7
CCOc1cccc(C(=O)Nc2ccc3oc(-c4cccnc4)nc3c2)c1,.,.,.,i,0.89,104.0,.
COc1ccc(C2CC(c3cccs3)=NN2C(=O)c2ccco2)cc1OC (stereo not drawn),.,.,.,i,0.99,103.7,.
COc1ccc(C(C[N+](=O)[O-])c2c(C)cc3ccccn23)cc1 (stereo not drawn),.,38.9,108.8,i,0.79,96.2,-2.8
CCOC(=O)c1ccc(Nc2nnc(C(C)(C)C)c(=O)[nH]2)cc1,-1.3,35.7,207.8,i,0.98,88.9,-5.4

# Results in PKD1 kinase inh, RGS16-Gao HTS and INS promoter inh (7 entries from above):
Compound	PKD1 kinase inh	RGS16-Gao HTS	INS promoter inh
CC1CCCCC1NC(=O)COC(=O)c1ccc(S(=O)(=O)NCc2ccco2)cc1 (stereo not drawn)	1.3	98.1	.
O=C(C(=O)N1CCN(c2ccccc2F)CC1)c1c[nH]c2ccccc12	-8.5	100.2	-44.4
CCCCC[n+]1ccn(-c2nc3ccccc3nc2[N-]S(=O)(=O)c2ccccc2)c1	.	99.4	.
CCOc1ccccc1/C=C(/NC(=O)c1ccccc1)C(=O)N(CC)CC	1.2	52.1	-20.6
Cc1oc2ccc(OC(=O)c3cccs3)cc2c1C(=O)OC(C)C	-3.1	96.8	-7.1
C/C(=N\NC(=S)NCc1ccccc1)c1cccc(Br)c1	-3.7	99.9	.
CCOc1cccc(C(=O)Nc2ccc3oc(-c4cccnc4)nc3c2)c1	.	104.0	.
